Assay outcomes: PubChem, several laboratories
BJeLR lethal = MLPCN primary cell-based screen for lethality selective to Ras in HRASV12 cells; inhibition, % (no concentration beside the values); 300,000 tested, 0.17% active; AID 1554, 2009; BJeLR (HRASV12) viability, CellTiter-Glo ATP luminescence, 48 h; reference of the scale not given here;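 active = replicate mean above 50%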;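 note: 50 nL library stock added to about 25 µL; numbers are from one replicate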
Sa RN4220 lethal = growth inhibition of S. aureus RN4220, primary screen, OD600. 16 h. inhibition, % (concentration not given with the values). 330,000 tested, 0.33% active. AID 1259311, 2017;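 active = z-score of -3 or lower and OD600 up to 0.18 on both plates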;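 note: plate controls were untreated cells for no effect and reference antibiotic for full effect; stock transfer was 100 nL into about 80 µL; one replicate is shown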
Mtb hypoxia inh = PubChem AID 1159583; 300,000 tested, 0.1% active; M. tuberculosis hypoxia-regulated fluorescent reporter, fluorescence; fluorescence inhibition, % (no concentration beside the values);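 active = 35 to 45% if threefold the growth effect, above 45% if 1.5-fold the growth effect; inactive = the rest, general growth blockers included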;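 note: wells of about 50 µL received 100 nL stock; 0% = vehicle wells and 100% = reference inhibitor wells; whole bacteria with a GFP reporter of the hypoxia response; strong numbers were not always called active; many hits fall short of the cut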
PrP UTR inh = inhibition of PrP 5' UTR reporter expression | cell-based PrP 5' UTR mRNA reporter, plate reader | inhibition, % (no concentration beside the values) | 340,000 tested, 0.35% active;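 active = every replicate at 50% or more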;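 note: 0 = median of the neutral control wells; tested in H4 reporter cells; numbers are from one replicate; inactives centre near -14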
Sa ugtP lethal = growth inhibition of ugtP-null S. aureus, primary screen, RN4220 ugtP deletion, OD600 | growth inhibition, % (no concentration beside the values) | 330,000 tested, 0.54% active | 16 h; some inactives read as strong as hits;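 active = z-score under -3 and OD600 up to 0.15 on both plates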;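 note: plate controls were untreated wells for no effect and antibiotic for full effect; wells of about 80 µL received 100 nL stock; the first replicate is given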
Autofluor counter = counter-screen for toxin protease inhibitors: compound fluorescence. compound autofluorescence counterscreen, microsphere flow cytometry; hits give high values. fluorescence intensity (no concentration beside the values). 360,000 tested, 3.1% active. AID 624483;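 active = at least 3 SD above the mean of all compounds, about 16000 in these data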;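 note: 100 nL of 1 mM stock went into each well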
Mtb hypoxia inh growth = also measured in Mtb hypoxia inh; calls as there; growth inhibition, %; measured here: M. tuberculosis growth (absorbance);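 0% = vehicle and 100% = reference antibiotic; read after six days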
Starred values were filed as active, the others as inactive; & = joins results of further samples.

How did CC1(C)CC(=O)c2cc(N=C/C(C(=O)c3ccccc3)=C(\O)c3ccccc3)c(=O)oc2C1 do in these assays?
BJeLR lethal: -1; Sa RN4220 lethal: 7.6; Mtb hypoxia inh: 8; PrP UTR inh: -14; Sa ugtP lethal: -4; Autofluor counter: 4431; Mtb hypoxia inh growth: 5

What do the screens show for `CCSc1ccccc1C(=O)Nc1nc2ccccc2c(=O)[nH]1`?
BJeLR lethal: 12; Sa RN4220 lethal: 6.3; Mtb hypoxia inh: 4; PrP UTR inh: -29; Sa ugtP lethal: 1; Autofluor counter: 2212; Mtb hypoxia inh growth: 1

What do the screens show for `COc1ccccc1CCNC1CCC(C)CC1` (stereo not given)?
BJeLR lethal: -20; Sa RN4220 lethal: -6.9; Mtb hypoxia inh: 0; PrP UTR inh: -11; Sa ugtP lethal: -1; Autofluor counter: 2111; Mtb hypoxia inh growth: -4

What do the screens show for `CC1(C)COC(c2coc3ccccc3c2=O)OC1`?
BJeLR lethal: 8; Sa RN4220 lethal: -0.8; Mtb hypoxia inh: 7; PrP UTR inh: -21; Sa ugtP lethal: 6; Autofluor counter: 2103; Mtb hypoxia inh growth: 11

Results for COc1ccc(C2CC(c3ccc(OC)cc3)n3nc(N)nc3N2)cc1 (stereo not given) ?
BJeLR lethal: -10; Sa RN4220 lethal: 0.6; PrP UTR inh: 7; Sa ugtP lethal: 0; Autofluor counter: 4452

Results for CC1(C)N(O)C2CCCCC2N1O (stereo not given) ?
BJeLR lethal: 3; Sa RN4220 lethal: 1.8; PrP UTR inh: -10; Sa ugtP lethal: 3; Autofluor counter: 5071

Results for CNS(=O)(=O)c1ccc(NC(=O)C(CCSC)NC(N)=O)cc1 (stereo not given) ?
BJeLR lethal: 7; Sa RN4220 lethal: 0.8; Mtb hypoxia inh: 7; PrP UTR inh: -18; Sa ugtP lethal: -1; Autofluor counter: 8835; Mtb hypoxia inh growth: 16

What do the screens show for `Nc1c(C(=O)Nc2ccc(S(=O)(=O)N3CCCC3)cc2)sc2nc3cc4c(cc3cc12)CCC4`?
BJeLR lethal: 7; Sa RN4220 lethal: 5.3; Mtb hypoxia inh: 9; PrP UTR inh: -31; Sa ugtP lethal: -1; Autofluor counter: 3057; Mtb hypoxia inh growth: -4

What do the screens show for `CC1CCCC(C)N1C(=O)COc1ccc(C(=O)N/N=C/c2ccc(C(=O)O)cc2)cc1` (stereo not given)?
BJeLR lethal: -7; PrP UTR inh: -15; Autofluor counter: 2256

How did COC(=O)c1cn(C(=O)c2cccs2)c2ccccc12 do in these assays?
Sa RN4220 lethal: 4.5; PrP UTR inh: -2; Sa ugtP lethal: 6; Autofluor counter: 4368

Results for CC(=O)c1cccc(NC(=O)C2CCN(C(=O)c3cccs3)CC2)c1 ?
BJeLR lethal: 0; Sa RN4220 lethal: 2.5; Mtb hypoxia inh: 14; PrP UTR inh: -21; Sa ugtP lethal: 3; Autofluor counter: 3949; Mtb hypoxia inh growth: 1

Results for CCCCSC1(SCCCC)N=C(N)C2(C#N)C(c3ccccc3)NC(C)=CC12C#N (stereo not given) ?
BJeLR lethal: -6; Sa RN4220 lethal: -5.3; PrP UTR inh: -11; Sa ugtP lethal: 7; Autofluor counter: 2949

How did O=C1CC(c2ccccc2)CC(O)=C1C=NCCN1CCNCC1 (stereo not given) do in these assays?
BJeLR lethal: -6; Sa RN4220 lethal: 3.5; Mtb hypoxia inh: 1; PrP UTR inh: -11; Sa ugtP lethal: 2; Autofluor counter: 3350; Mtb hypoxia inh growth: 3

How did COc1ccc(-c2ccc(SCC(=O)NCC3CCCO3)nn2)cc1OC (stereo not given) do in these assays?
BJeLR lethal: -9; Sa RN4220 lethal: 3.5; Mtb hypoxia inh: 7; PrP UTR inh: -16; Sa ugtP lethal: 2; Autofluor counter: 4300; Mtb hypoxia inh growth: 0

How did Cc1ccc(S(=O)(=O)OCCC2=CC(=O)CCN2Cc2ccccc2)cc1 do in these assays?
Sa RN4220 lethal: 6.6; Mtb hypoxia inh: 4; PrP UTR inh: 7; Sa ugtP lethal: 5; Autofluor counter: 4755; Mtb hypoxia inh growth: -1

What do the screens show for `O=C(NCc1ccc(F)cc1)C1CCC(=O)N1C1CCCCC1` (stereo not given)?
BJeLR lethal: 2; Sa RN4220 lethal: 6.2; Mtb hypoxia inh: -2; PrP UTR inh: -24; Sa ugtP lethal: -4; Autofluor counter: 10158; Mtb hypoxia inh growth: 3

How did O=C(NN=Cc1cccc([N+](=O)[O-])c1O)C(O)(c1ccccc1)c1ccccc1 do in these assays?
Sa RN4220 lethal: 10; Mtb hypoxia inh: -9; Sa ugtP lethal: -7; Mtb hypoxia inh growth: -4

Results for Cc1cc(C)n(-c2ccc(NC(=O)C3CCN(Cc4ccccn4)CC3)cc2)n1 ?
BJeLR lethal: 2; Sa RN4220 lethal: -0.7; Mtb hypoxia inh: -6; PrP UTR inh: -2; Sa ugtP lethal: 3; Autofluor counter: 4737; Mtb hypoxia inh growth: 0

Results for CCC(C)C(NC(=O)c1ccc(Cl)cc1)C(=O)O (stereo not given) ?
BJeLR lethal: 0; Sa RN4220 lethal: -14; Mtb hypoxia inh: 4; PrP UTR inh: -16; Sa ugtP lethal: -3; Autofluor counter: 3387; Mtb hypoxia inh growth: 7

How did CCn1cc(C(=O)OC(C)C(=O)Nc2c(C)n(C)n(-c3ccccc3)c2=O)c(=O)c2ccc(C)nc21 (stereo not given) do in these assays?
Sa RN4220 lethal: 11; PrP UTR inh: -4; Sa ugtP lethal: 3; Autofluor counter: 2084

What do the screens show for `COc1ccc(C)cc1S(=O)(=O)N1CCOCC1`?
BJeLR lethal: 7; Sa RN4220 lethal: 5.1; Mtb hypoxia inh: 8; PrP UTR inh: -8; Sa ugtP lethal: -2; Autofluor counter: 4245; Mtb hypoxia inh growth: -2

What do the screens show for `Cc1ccc(NC(=O)COn2nnc3ccc(S(=O)(=O)N(C)C)cc32)cc1F`?
BJeLR lethal: -4; Sa RN4220 lethal: 6.0; PrP UTR inh: 3; Sa ugtP lethal: -4; Autofluor counter: 2788

What do the screens show for `CN(CC1COc2ccccc2O1)C(=S)Nc1ccccc1` (stereo not given)?
BJeLR lethal: -7; Sa RN4220 lethal: 0.0; Mtb hypoxia inh: 3; PrP UTR inh: -16; Sa ugtP lethal: -1; Autofluor counter: 4673; Mtb hypoxia inh growth: -4

Results for C=CCC(CC(=O)OC(C)(C)C)C(=O)OCC1CCCN1C(=O)C(CC=C)CC(=O)NCCO (stereo not given) ?
Sa RN4220 lethal: 0.1&3.6&4.3; Mtb hypoxia inh: 1&9&7; Sa ugtP lethal: -1&2&2; Mtb hypoxia inh growth: 4&11&2

Results for Cc1cccc(C2C3C(=O)N(Cc4ccccc4)C(=O)C3[C@]3(Cc4ccccc4)C(=O)N(c4cccc(Cl)c4)C(=O)N23)c1 (stereo not given in full) ?
Sa RN4220 lethal: 6.3; Mtb hypoxia inh: -3; Sa ugtP lethal: -9; Mtb hypoxia inh growth: -2

What do the screens show for `CCOc1ccc2c(c1)C(N(CCN1CCOCC1)C(=O)Nc1ccc(OC)cc1OC)CC(C)(C)O2` (stereo not given)?
BJeLR lethal: 5; Sa RN4220 lethal: 2.6; Mtb hypoxia inh: 8; PrP UTR inh: -26; Sa ugtP lethal: 5; Autofluor counter: 4641; Mtb hypoxia inh growth: 6

What do the screens show for `NS(=O)(=O)c1cc(C(=O)OC2CCOC2=O)ccc1Cl` (stereo not given)?
BJeLR lethal: 1; Sa RN4220 lethal: 0.8; Mtb hypoxia inh: 11; PrP UTR inh: -13; Sa ugtP lethal: 15; Autofluor counter: 4075; Mtb hypoxia inh growth: -8

Results for Cn1c(CBr)c(C(=O)c2ccc([N+](=O)[O-])cc2)c(=O)n(C)c1=O ?
BJeLR lethal: 1; Sa RN4220 lethal: 1.6; Mtb hypoxia inh: 14; PrP UTR inh: -14; Sa ugtP lethal: -9; Autofluor counter: 4099; Mtb hypoxia inh growth: -2

How did CCOC(=O)Cc1c(Sc2ccccc2)c2ccccc2n1C do in these assays?
BJeLR lethal: -6; Sa RN4220 lethal: -9.3; Mtb hypoxia inh: 14; PrP UTR inh: -3; Sa ugtP lethal: 95*; Autofluor counter: 6801; Mtb hypoxia inh growth: -1

What do the screens show for `COC(=O)c1ccc(/C=C/c2ccc3cccc(OC(C)=O)c3n2)cc1`?
BJeLR lethal: 10; Sa RN4220 lethal: -2.7; Mtb hypoxia inh: 0; PrP UTR inh: -153; Sa ugtP lethal: -13; Autofluor counter: 1956; Mtb hypoxia inh growth: 2

What do the screens show for `CC(CCc1ccccc1)NC(=O)COC(=O)C1=COCCO1` (stereo not given)?
BJeLR lethal: -7; Sa RN4220 lethal: -18; Mtb hypoxia inh: 1; PrP UTR inh: -32; Sa ugtP lethal: -6; Autofluor counter: 3012; Mtb hypoxia inh growth: 2

What do the screens show for `NC(=NOC(=O)c1ccccc1F)c1ccc([N+](=O)[O-])cc1`?
Sa RN4220 lethal: 5.1; Mtb hypoxia inh: 0; Sa ugtP lethal: 11; Mtb hypoxia inh growth: 2

Results for CCCNC(=S)N1CCC(c2nc3cc(C)c(C)cc3[nH]2)CC1 ?
BJeLR lethal: -6; Sa RN4220 lethal: 6.3; Mtb hypoxia inh: 13; PrP UTR inh: -28; Sa ugtP lethal: -9; Autofluor counter: 12936; Mtb hypoxia inh growth: 10

Results for CCN(C1CCS(=O)(=O)C1)S(=O)(=O)c1cc(C)ccc1C (stereo not given) ?
BJeLR lethal: 1; Sa RN4220 lethal: 1.7; Mtb hypoxia inh: 5; PrP UTR inh: -4; Sa ugtP lethal: 7; Mtb hypoxia inh growth: -3

What do the screens show for `COc1ccc(/C=C(\NC(=O)c2cccs2)C(=O)N2CCOCC2)cc1OC`?
BJeLR lethal: -1; PrP UTR inh: -3; Autofluor counter: 2232

Results for Cc1nn2c3c(cnc2c1-c1ccccc1)C(=O)CCC3 ?
BJeLR lethal: 18; Sa RN4220 lethal: 5.8; Mtb hypoxia inh: 14; PrP UTR inh: -31; Sa ugtP lethal: 2; Autofluor counter: 9070; Mtb hypoxia inh growth: 13

What do the screens show for `O=S(=O)(c1ccc2ccccc2c1)N1CCN(Cc2ccccn2)CC1`?
BJeLR lethal: -1; Sa RN4220 lethal: 6.9; Mtb hypoxia inh: 0; PrP UTR inh: -17; Sa ugtP lethal: 1; Autofluor counter: 3942; Mtb hypoxia inh growth: -1

What do the screens show for `CC1CCCC(C)N1CC(O)COCc1ccccc1F` (stereo not given)?
BJeLR lethal: -8; Sa RN4220 lethal: -1.6; Mtb hypoxia inh: -2; PrP UTR inh: -9; Sa ugtP lethal: 1; Autofluor counter: 3169; Mtb hypoxia inh growth: -1

6 entries picked at random from the list so far, as already listed:
How did CCn1cc(C(=O)OC(C)C(=O)Nc2c(C)n(C)n(-c3ccccc3)c2=O)c(=O)c2ccc(C)nc21 (stereo not given) do in these assays?
Sa RN4220 lethal: 11; PrP UTR inh: -4; Sa ugtP lethal: 3; Autofluor counter: 2084

What do the screens show for `CCOc1ccc2c(c1)C(N(CCN1CCOCC1)C(=O)Nc1ccc(OC)cc1OC)CC(C)(C)O2` (stereo not given)?
BJeLR lethal: 5; Sa RN4220 lethal: 2.6; Mtb hypoxia inh: 8; PrP UTR inh: -26; Sa ugtP lethal: 5; Autofluor counter: 4641; Mtb hypoxia inh growth: 6

How did CC1(C)CC(=O)c2cc(N=C/C(C(=O)c3ccccc3)=C(\O)c3ccccc3)c(=O)oc2C1 do in these assays?
BJeLR lethal: -1; Sa RN4220 lethal: 7.6; Mtb hypoxia inh: 8; PrP UTR inh: -14; Sa ugtP lethal: -4; Autofluor counter: 4431; Mtb hypoxia inh growth: 5

How did COC(=O)c1cn(C(=O)c2cccs2)c2ccccc12 do in these assays?
Sa RN4220 lethal: 4.5; PrP UTR inh: -2; Sa ugtP lethal: 6; Autofluor counter: 4368

Results for Cn1c(CBr)c(C(=O)c2ccc([N+](=O)[O-])cc2)c(=O)n(C)c1=O ?
BJeLR lethal: 1; Sa RN4220 lethal: 1.6; Mtb hypoxia inh: 14; PrP UTR inh: -14; Sa ugtP lethal: -9; Autofluor counter: 4099; Mtb hypoxia inh growth: -2

What do the screens show for `CN(CC1COc2ccccc2O1)C(=S)Nc1ccccc1` (stereo not given)?
BJeLR lethal: -7; Sa RN4220 lethal: 0.0; Mtb hypoxia inh: 3; PrP UTR inh: -16; Sa ugtP lethal: -1; Autofluor counter: 4673; Mtb hypoxia inh growth: -4
